Bioassay records: PubChem, several laboratories
Rce1 inh: yeast Rce1p protease inhibitors, primary screen, biochemical, fluorescence, cell-free homogeneous. 290,000 tested, 0.27% active. calls only. CAAX prenyl protease 2 (Saccharomyces cerevisiae (strain ATCC 204508 / S288c)), Q03530. yeast membranes, quenched prenylated peptide cleavage fluorescence;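 active means fall in fluorescence gain of 50% or more versus controls, with final raw signal at or below 3038400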;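 further: plate controls were neutral control wells for no effect and wells lacking membranes for full effect; tested at 10 µM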
Target sequence (Q03530 whole entry, looked up): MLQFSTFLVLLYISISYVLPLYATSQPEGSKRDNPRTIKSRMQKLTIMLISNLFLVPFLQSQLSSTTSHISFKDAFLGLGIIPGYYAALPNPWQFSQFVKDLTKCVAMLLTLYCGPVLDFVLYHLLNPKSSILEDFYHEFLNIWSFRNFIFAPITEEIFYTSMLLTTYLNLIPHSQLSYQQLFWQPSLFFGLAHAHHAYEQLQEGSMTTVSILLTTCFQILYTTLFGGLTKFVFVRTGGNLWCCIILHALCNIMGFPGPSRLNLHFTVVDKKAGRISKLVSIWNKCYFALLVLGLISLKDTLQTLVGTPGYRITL
MT1-MMP act inh: blockers of MT1-MMP proenzyme processing, primary screen, HT1080 RFP-PRO-GFP cells, GFP/RFP fluorescence; Matrix metalloproteinase-14 (Homo sapiens), P50281; GFP/RFP ratio fluorescence, overnight; percent of plate control window, DMSO zero; GFP/RFP ratio change, % at 20 µM; 360,000 tested, 0.061% active; AID 651647, 2012;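 active means GFP/RFP ratio change of at least 30% with cell ATP level not reduced by more than half and red fluorescence within 50% of control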; further: strong numbers were not always called active
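Material – HT1080 RFP-PRO-GFP cells · Control set – DMSO wells and RFP-L50D-GFP cells · Incubation – overnight cell settling, then overnight compound exposure, 37 °C, 5% CO2 · Compound dosing – single-point 20 µM compound, 1% DMSO · Read-out – GFP/RFP fluorescence ratio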
eIF4H FP inh: human eIF4H binding inhibitors, primary screen, translation initiation inhibitor project, biochemical, uHTS, fluorescence polarization. eIF4H fluorescence polarization binding assay. 290,000 tested, 0.94% active. inhibition, % at 35 µM;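 active means 50% or more with normal probe brightness, or confirmed in later tests; about a fifth of its hits are not listed in these tables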;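 further: calls also rest on retests at 20 µM and on dose response follow-up; 0% = protein and probe with vehicle and 100% = probe without protein; strong numbers were not always called active; many hits fall short of the cut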
HIV Env fusion: inhibitors of HIV-1 Env-driven cell-cell fusion, primary screen, HeLa-JRFL effector, CEM21 target cells, luciferase. inhibition, % at 12.3 µM. 360,000 tested, 1.1% active. AID 651610, 2012;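 active means mean replicate inhibition score of at least 50 and every replicate individually at or above 50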;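 further: 0% = plate neutral controls and 100% = maraviroc near 300 nM; one replicate is shown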
UUG fidelity: modulators of yeast start codon fidelity, primary screen, whole organism, S. cerevisiae, single point, plate reader. S. cerevisiae UUG-firefly luciferase reporter, luminescence/redox ratio. AID 602363, 2012. 350,000 tested, 0.13% active. activity score, % at 18.7 µM;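 active means replicate mean at a twofold rise or more, about +100% in these data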;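 further: firefly luciferase made from a UUG start codon reports start codon fidelity; reporter light over untreated wells divided by growth signal over untreated wells; some hits fall short of that in this replicate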
CSC inhib: cancer stem cell viability inhibitors, primary screen, luminescence; cancer stem cell-like cells viability; inhibition, % at 7.5 µM; 300,000 tested, 1.1% active; AID 2717, 2010;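 active means mean at 75% or more and at least half the replicates too; tested in HMLE shEcad cells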;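 further: 0% = median of negative and 100% = median of positive control wells; the first replicate is given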
PABP polyA inh: PABP poly(A) RNA binding inhibitors, primary screen, biochemical, fluorescence polarization, uHTS | Polyadenylate-binding protein 1 (Homo sapiens), P11940 | inhibition, % at 35 µM | 290,000 tested, 1% active | AID 2014, 2009;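 active means 50% or more with normal probe brightness, or confirmed in later tests; about a fifth of its hits are not listed in these tables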;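 further: calls also rest on retests at 20 µM and on dose response follow-up; controls were probe without protein and protein plus probe with vehicle; some compounds called inactive have numbers as strong as hits; many hits fall short of the cut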
eIF4H FP inh retest: recorded beside eIF4H FP inh, whose call it bears; inhibition, %; compound at 20 µM; confirmation average;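 mean of two retest wells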
PABP polyA inh retest: second read-out of PABP polyA inh, no call of its own (marks repeat the call); inhibition, %; compound at 20 µM; confirmation repeats;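 mean of two retest wells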
MT1-MMP act inh RFP: recorded beside MT1-MMP act inh, whose call it bears; RFP signal change, %; measured here: RFP expression control read;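 0 = vehicle wells; hits needed this value within 50% of zero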
* hit, by the source's call; i = inactive; . = not tested or not shown.

SMILES | Rce1 inh | MT1-MMP act inh | MT1-MMP act inh RFP | eIF4H FP inh | HIV Env fusion | UUG fidelity | CSC inhib | PABP polyA inh | others
COc1cc(O)oc1C=Nc1ccc(Oc2ccccc2)cc1 | i | 1 | 1 | 0 | -97 | . | -7 | 39
CCOc1ccccc1C(=O)NC(C(=O)OCC(=O)Nc1nnc(-c2ccccc2)o1)C(C)C (configuration not stated) | i | 6 | 4 | 7 | . | -24 | 3 | 4
BrC(/C=N/Nc1nc(N2CCOCC2)nc(N2CCOCC2)n1)=C/c1ccccc1 | i | -7 | -6 | -2 | . | -21 | -4 | 4
CC(=O)NS(=O)(=O)c1ccc(NC(=O)C(Sc2ccccc2)c2ccccc2)cc1 (configuration not stated) | i | 1 | 7 | 1 | . | . | . | -8
Cc1nc2ccccc2c(=O)n1CCN1CCOCC1 | i | -1 | 4 | 7 | . | 3 | -3 | -5
O=C(NCc1ccccc1)c1cc(S(=O)(=O)N2CCCCC2)ccc1N1CCOCC1 | i | 0 | -7 | -5 | 14 | 29 | 3 | -5
Cc1ccc(/C=C2/CCc3c([nH]c4ccccc34)C2=O)cc1 | i | -1 | -1 | -3 | i | -15 | 12 | -11
O=C(O)c1cccc(NC(CNS(=O)(=O)c2ccc(Cl)cc2)c2ccccc2)c1 (configuration not stated) | i | -1 | 2 | -3 | -4 | . | 2 | -6
Cc1ccccc1N1CCN(C2CCCN(C(=O)c3ccsc3)C2)CC1 (configuration not stated) | i | 3 | 1 | -5 | -1 | -26 | -2 | -3
O=C(NCc1ccccc1)C1CCCN(S(=O)(=O)c2cccc3nonc23)C1 (configuration not stated) | i | 1 | 2 | -6 | 7 | . | -5 | 4
O=C(COC(=O)c1ccc(Cl)nc1)Nc1ccc(N2CCOCC2)cc1 | . | -1 | 4 | . | -3 | -16 | . | .
CC1Cn2c(nc3sc4c(c3c2=O)CC(C)(C)OC4)N1CCO (configuration not stated) | i | 1 | 2 | -4 | 1 | -8 | -2 | -9
Cc1ccc(-c2cc(C(=O)Nc3ccc(S(=O)(=O)Nc4cc(C)on4)cc3)c3ccccc3n2)c(C)c1 | i | 2 | -4 | -8 | . | -10 | 8 | 1
O=C(NCCCN1CCOCC1)c1onc(CSc2nc3ccccc3[nH]2)c1C(=O)NCCCN1CCOCC1 | i | -1 | 3 | 7 | -26 | -10 | -8 | 37
CCOC(=O)c1ccc(-c2c(-c3ccc4c(c3)OCO4)noc2-c2ccsc2)cc1F | i | -8 | -4 | -8 | 25 | -11 | 13 | 7
COCCCNC(=O)C(=O)N/N=C/c1cc2c(cc1Br)OCO2 | i | 6 | 1 | -12 | -3 | . | . | -7
COc1ccccc1NS(=O)(=O)c1ccc(C)c(NS(=O)(=O)c2cc(NC(C)=O)ccc2OC)c1 | . | -6 | 0 | . | -2 | 5 | . | .
O=C(CC1C(=O)NCCN1C/C=C/c1ccccc1)NCCc1cccnc1 (configuration not stated) | i | 7 | 2 | 5 | 8 | -12 | -1 | -4
Cc1c(CCOC(=O)c2ccccc2)sc[n+]1Cc1ccccc1 | i | 0 | 1 | -7 | -3 | -2 | . | -12
CCC(=O)c1ccc(OCC(=O)OC(C)C(=O)NCc2ccc3c(c2)OCO3)cc1 (configuration not stated) | i | 6 | 0 | . | -3 | -2 | . | .
COCCN(C(=O)COC(=O)c1cnc(C)cn1)c1c(N)n(Cc2ccccc2)c(=O)[nH]c1=O | i | 0 | 6 | . | . | -3 | 4 | .
CCOC(=O)c1[nH]c2c(c1C)C(=O)CC(c1ccc(OCC)c(OC)c1)C2 (configuration not stated) | i | 5 | -3 | 6 | . | -19 | 2 | 5
O=C(N/N=C/c1ccncc1)c1sc2ccccc2c1Cl | i | -1 | 3 | -16 | -18 | -13 | -15 | 7
COc1cccc(CC2(CO)CCCN(Cc3cn[nH]c3-c3cc(C)ccc3C)C2)c1 (configuration not stated) | i | 1 | 1 | 12 | 22 | . | 0 | -7
C#CCOCCOCCOCCNc1nc(N2CCN(C(=O)Cn3cc(CCO)nn3)CC2)nc(N2CCN(C(=O)Cn3cc(CC(C)O)nn3)CC2)n1 (configuration not stated) | . | 0 | 3 | . | -18 | -11 | . | .
The list goes on.
SMILES | Rce1 inh | MT1-MMP act inh | MT1-MMP act inh RFP | eIF4H FP inh | HIV Env fusion | UUG fidelity | CSC inhib | PABP polyA inh | others
CCCOc1ccc(C(=O)NC(=S)N2CCN(c3cc4c(cc3F)c(=O)c(C(=O)O)cn4CC)CC2)cc1 | i | 4 | -22 | 26 | 30 | -14 | . | 9
O=C1c2cccc3c2N(CCC3)C(=O)C1(F)c1ccccc1 (configuration not stated) | i | 0 | 1 | . | 21 | -1 | 13 | .
COc1ccccc1N(C)S(=O)(=O)c1ccc(C(=O)NCC(c2ccco2)N2CCCCC2)cc1 (configuration not stated) | . | 2 | -3 | . | 5 | -43 | . | .
COc1ccc(-c2onc(C)c2-c2ccc(C(=O)OC(C)C)o2)c(O)c1 | i | -7 | -7 | 3 | . | -3 | -7 | -18
COc1ccccc1NC(=O)NNC(=O)CCc1ccccc1 | i | -4 | -1 | 5 | -3 | -19 | -9 | 4
Cc1ccc(NC(=O)c2nc3nccc(C)n3n2)cc1S(=O)(=O)N1CCCCC1 | . | 3 | 1 | . | . | -12 | -20 | .
COC(=O)c1ccc(CSc2nnc(NC(=O)C3CC(=O)N(c4ccc5c(c4)OCCO5)C3)s2)cc1 (configuration not stated) | i | 4 | 4 | 4 | 3 | . | 2 | -2
O=C1OC(Nc2ccc3ncccc3c2)c2ccccc21 (configuration not stated) | . | 2 | 4 | -2 | . | . | . | -1
CCN(CC)S(=O)(=O)c1cc(NC(=O)c2ccc(-n3cncn3)c([N+](=O)[O-])c2)ccc1C | i | 2 | -25 | -9 | -1 | -3 | -2 | 38
C[C@H]1COC(=O)[C@H](Cc2ccc(F)cc2)C/C=C\C[C@H](CC(=O)NCCO)C(=O)N1 | . | -2 | 1 | . | -8 | -10 | 0 | .
NNC(=O)c1sc2cc(C(F)(F)F)cnc2c1-c1cccnc1 | . | 5 | 4 | 5 | 24 | . | -8 | 4
CC1CCCCN1C(=O)CSc1nnc(-c2ccco2)o1 (configuration not stated) | i | 0 | 5 | 1 | -13 | -15 | 2 | 2
COC(=O)c1ccc(/C=C2/SC(=S)N(CCCC(=O)Nc3ccc(O)cc3)C2=O)cc1 | i | 6 | -1 | 5 | 0 | -24 | 18 | 7
O=C(Cn1c(CO)nc2ccccc21)Nc1ccc2c(c1)OCCCO2 | . | 4 | -4 | . | 2 | -9 | . | .
Cc1cc2nc(-c3cccnc3SCC(=O)NC(C)C)[nH]c2cc1C | i | 0 | -2 | 28 | -52 | -27 | 2 | 10
Cc1ncc(CO)c(/C=N/NC(=O)c2cc(O)c(O)c(O)c2)c1O | i | . | . | 57 | . | . | . | 1 | eIF4H FP inh retest=0;PABP polyA inh retest=-4
C=C(C)CSc1nc2c(cc1C#N)CCC2 | i | 5 | 5 | -5 | 1 | -12 | -4 | -6
COc1ccc(CN2C(=O)c3cccnc3C2=O)cc1S(=O)(=O)N1CC(C)Oc2ccccc21 (configuration not stated) | i | -1 | 2 | 21 | 3 | -22 | -9 | -5
CC(C)(C)c1ccc(-c2csc(NC(=O)CN3C(=O)NC4(CCCCC4)C3=O)n2)cc1 | i | -3 | -18 | -15 | . | 8 | 2 | -9
CC1(C(=O)Nc2ccc3c(c2)OCCO3)CCN1Cc1csc2ccccc12 (configuration not stated) | . | -5 | -7 | . | 25 | 1 | . | .
COc1ccc(-n2nc(C(=O)NCC(=O)N3CCCC(C)C3)c3ccccc3c2=O)cc1Cl (configuration not stated) | i | -2 | -3 | -7 | -51 | -9 | -7 | 10
Cc1cc(Cl)ccc1C(O)c1ncc(-c2ccc3ccccc3c2)[nH]1 (configuration not stated) | . | 0 | 1 | . | 11 | -22 | . | .
Cc1ccc(OCC(=O)Nc2ccc(Cl)cc2)c([N+](=O)[O-])n1 | . | 0 | -1 | . | -36 | -7 | 7 | .
COCCn1cnnc1SCC(=O)Nc1sc2c(c1C#N)CCC2 | . | -6 | 2 | . | 7 | -1 | -12 | .
Cc1ccc(OCC(=O)Nc2ccc3c(c2)OCCO3)cc1C | i | . | . | 1 | 15 | . | -7 | 1
NCCCCCNC(=O)/C=N\O | i | 1 | 6 | 3 | -39 | . | -4 | 5
Cc1cccc(C(=O)NCC(=O)N2CC=C(c3ccccc3)CC2)c1 | . | 0 | 0 | . | -1 | -2 | . | .
COc1cc(OC)cc(-n2nnnc2SCC(=O)NC2CCCC2)c1 | i | 7 | 3 | -8 | . | . | -3 | 0
C(=N\N1CCN(C2c3ccccc3-c3ccccc32)CC1)/c1ccccn1 | i | -11 | -12 | -5 | . | -17 | -3 | -1
CS(=O)(=O)N(CC(=O)NC1CCCC1)C1CCCCC1 | . | 1 | 0 | 1 | -11 | . | -2 | 2

Seven structures from above, ordered by heavy-atom count, low to high.
SMILES | Rce1 inh | MT1-MMP act inh | MT1-MMP act inh RFP | eIF4H FP inh | HIV Env fusion | UUG fidelity | CSC inhib | PABP polyA inh | others
CC1CCCCN1C(=O)CSc1nnc(-c2ccco2)o1 (configuration not stated) | i | 0 | 5 | 1 | -13 | -15 | 2 | 2
Cc1ncc(CO)c(/C=N/NC(=O)c2cc(O)c(O)c(O)c2)c1O | i | . | . | 57 | . | . | . | 1 | eIF4H FP inh retest=0;PABP polyA inh retest=-4
Cc1cccc(C(=O)NCC(=O)N2CC=C(c3ccccc3)CC2)c1 | . | 0 | 0 | . | -1 | -2 | . | .
O=C(Cn1c(CO)nc2ccccc21)Nc1ccc2c(c1)OCCCO2 | . | 4 | -4 | . | 2 | -9 | . | .
CC1(C(=O)Nc2ccc3c(c2)OCCO3)CCN1Cc1csc2ccccc12 (configuration not stated) | . | -5 | -7 | . | 25 | 1 | . | .
C[C@H]1COC(=O)[C@H](Cc2ccc(F)cc2)C/C=C\C[C@H](CC(=O)NCCO)C(=O)N1 | . | -2 | 1 | . | -8 | -10 | 0 | .
COC(=O)c1ccc(CSc2nnc(NC(=O)C3CC(=O)N(c4ccc5c(c4)OCCO5)C3)s2)cc1 (configuration not stated) | i | 4 | 4 | 4 | 3 | . | 2 | -2

Random draw from the library; 3% or so of the library scored in one or more.
